PrP 5UTR inh: inhibition of PrP 5' UTR reporter expression | AID 488862 | cell-based PrP 5' UTR mRNA reporter, plate reader | 340,000 compounds, 0.35% hits | inhibition, % (concentration not given with the values);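 active = every replicate at 50% or more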;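 also: 0 = median of the neutral control wells; tested in H4 reporter cells; numbers are from one replicate; inactives centre near -14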
Bead autofluor: compound fluorescence in toxin protease inhibitor counterscreen. 360,000 compounds, 3.1% hits. fluorescence intensity (no concentration beside the values). compound autofluorescence counterscreen, microsphere flow cytometry; active compounds read high;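 active = at least 3 SD above the mean of all compounds, about 16000 in these data; inconclusive = too few beads counted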;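 also: 100 nL of 1 mM stock went into each well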
Mtb hypoxia inh: inhibitors of hypoxia-regulated fluorescent reporter in Mycobacterium tuberculosis. fluorescence inhibition, % (no concentration beside the values). M. tuberculosis hypoxia-regulated fluorescent reporter, fluorescence. 300,000 compounds, 0.1% hits;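 active = 35 to 45% if threefold the growth effect, above 45% if 1.5-fold the growth effect; inactive = the rest, general growth blockers included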;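 also: wells of about 50 µL received 100 nL stock; 0% = vehicle wells and 100% = reference inhibitor wells; whole bacteria with a GFP reporter of the hypoxia response; strong numbers were not always called active; many hits fall short of the cut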
Sa RN4220 lethal: kills Staphylococcus aureus RN4220 | 330,000 compounds, 0.33% hits | S. aureus RN4220 growth, OD600, 16 h | AID 1259311 | inhibition, % (concentration not given with the values);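 active = z-score of -3 or lower and OD600 up to 0.18 on both plates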;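 also: plate controls were untreated cells for no effect and reference antibiotic for full effect; stock transfer was 100 nL into about 80 µL; one replicate is shown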
Sa ugtP lethal: kills S. aureus RN4220 lacking UgtP; S. aureus RN4220 ugtP deletion, OD600 growth, 16 h; some inactives read as strong as hits; growth inhibition, % (test concentration not listed); 330,000 compounds, 0.54% hits; AID 1259309;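 active = z-score under -3 and OD600 up to 0.15 on both plates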;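 also: plate controls were untreated wells for no effect and antibiotic for full effect; wells of about 80 µL received 100 nL stock; the first replicate is given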
BJeLR viability: kills HRASV12-expressing BJeLR cells; inhibition, % (test concentration not listed); AID 1554; 300,000 compounds, 0.17% hits; BJeLR (HRASV12) viability, CellTiter-Glo ATP luminescence, 48 h; reference of the scale not given here;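 active = replicate mean above 50%; inconclusive = above 50% but judged a plate artefact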;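 also: 50 nL library stock added to about 25 µL; numbers are from one replicate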
Mtb hypoxia inh growth: also measured in Mtb hypoxia inh; calls as there; growth inhibition, %; measured here: M. tuberculosis growth (absorbance);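 0% = vehicle and 100% = reference antibiotic; read after six days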
Active calls of the source: *; ? = inconclusive; / = no result given.

No.	Compound	PrP 5UTR inh	Bead autofluor	Mtb hypoxia inh	Mtb hypoxia inh growth	Sa RN4220 lethal	Sa ugtP lethal	BJeLR viability
1	CC(C)C(NS(=O)(=O)c1ccccc1F)C(=O)N1CCc2ccccc2C1 (stereo not drawn)	-4.5	5844	4.5	8.6	-0.9	0.7	-3.1
2	CC(=O)NC(NC(=S)Nc1ccc(S(N)(=O)=O)cc1)C(Cl)(Cl)Cl (stereo not drawn)	-11.5	4378	10.7	5.4	3.2	3.9	-9.7
3	Cc1cccc(C(C)C)c1NC(=O)CSc1cccc[n+]1[O-]	-23.4	4356	5.4	-1.7	1.0	2.1	/
4	CCn1c(O)c(C=NC2CCCC2)sc1=S	-44.3	5972	7.7	16.0	3.2	-10.3	-4.4
5	O=C(NC1CC(=O)N(c2cccc(F)c2)C1)N1CCN(C(=O)c2ccco2)CC1 (stereo not drawn)	17.8	6897	8.1	2.4	3.1	2.8	-7.4
6	O=C(Nc1ccc(-c2nc3ncccc3o2)cc1)c1ccc(Br)o1	-40.9	3241	-4.7	0.4	2.2	-7.3	-1.9
7	CC(C)(C)OC(=O)[C@H]1[C@H](c2ccc([N+](=O)[O-])cc2)C2(C(=O)c3ccccc3C2=O)C2c3ccccc3C=NN21 (stereo partly drawn)	-10.3	1990	18.1	2.4	14.1	7.5	11.0
8	O=C(N/N=C/c1ccncc1)c1cc2ccccc2o1	-20.1	2634	/	/	/	/	-9.1
9	CCOP(=O)(OCC)C(Nc1ccccc1)c1cc(OC)ccc1OC (stereo not drawn)	-9.3	1896	1.2	5.8	1.4	-7.2	1.8
10	CC(C)(C)OC(=O)NCCCCC(C(=O)N1CCN(C(=O)OC(C)(C)C)CC1)n1cc(CCC(=O)O)nn1 (stereo not drawn)	/	/	0.5	2.2	-2.4	-5.0	/
11	CCN1CCN(S(=O)(=O)c2cc(C(=O)O)ccc2Cl)CC1	-19.0	4944	13.6	4.8	4.0	4.5	-4.0
12	O=C(O)CSCC(=O)Nc1ccc(Br)c(C(F)(F)F)c1	-2.2	?	7.3	9.0	1.2	5.5	0.2
13	CCN(CC)S(=O)(=O)c1cccc(C(=O)OCC(=O)c2ccc3c(c2)NC(=O)CO3)c1	-13.3	9593	18.1	3.3	0.6	2.1	-3.2
14	Cc1cc(C(=O)Nc2nc3c(C)cccc3s2)c(C)o1	-60.7	3328	1.0	14.1	-7.4	-6.8	8.8
15	CCN(CC)c1ccc2cc(-c3nnc(-c4ccccc4)o3)c(=O)oc2c1	-50.6	4020	/	/	6.0	6.0	8.1
16	COc1ccc(C(=Cc2ccccc2)C(=O)O)cc1	4.1	2944	7.0	7.5	0.0	-7.5	/
17	Cc1ccc(C2(C)NC(=O)N(CC(=O)Nc3cc(S(=O)(=O)N4CCOCC4)ccc3C)C2=O)cc1 (stereo not drawn)	-19.3	2920	15.0	1.4	2.8	5.2	11.1
18	O=C(NCc1ccco1)c1cc2cc3ccc(Cl)cc3nc2o1	-17.9	4436	/	/	-3.5	1.0	3.7
19	Nc1c(C(=O)O)sc2nc(-c3ccccc3)cc(-c3ccccc3)c12	-16.5	5647	15.1	11.6	2.0	-2.5	4.4
20	CC12CCC(=O)N1C(C(=O)O)Cc1c2[nH]c2ccccc12 (stereo not drawn)	-2.5	4665	/	/	1.3	3.9	0.2
21	COc1cc(CN2CCCCCC2)cc([N+](=O)[O-])c1O	-30.4	4743	6.2	5.0	3.9	14.7	13.3
22	Cc1cccc(C(=O)ON=C2CC3CCC2(C)C3(C)C)c1 (stereo not drawn)	/	/	-12.4	-0.5	7.3	-13.5	/
23	Cc1ccc(S(=O)(=O)N(CC(=O)NCC2CCCO2)c2cccc([N+](=O)[O-])c2)cc1 (stereo not drawn)	-20.5	3876	16.9	1.0	9.3	12.5	3.9
24	CC1CC(C)CN(C(=O)C2CC(=O)N(c3ccc(F)cc3)C2)C1 (stereo not drawn)	4.1	5956	3.4	4.6	2.5	-3.3	0.9
25	COc1cc(OC)cc(C(=O)/C=C2\Sc3ccccc3N2C)c1	-8.9	4502	-1.9	2.0	2.7	-7.4	-12.6
26	COc1ccc(/C(=N\Nc2ccccc2C(=O)O)c2ccccc2)cc1	-19.9	2201	/	/	/	/	-0.1
27	COc1ccc(CN(C(=O)CSc2nnc(-c3ccc(F)cc3)o2)c2ccc(F)cc2)cc1	-4.0	10485	13.5	1.8	14.4	-11.3	0.7
28	CC(C)Cc1nc2oc3c(Cl)ncnc3c2c2c1CCC2	5.9	7727	9.8	14.3	5.9	-7.9	-15.1
29	COc1ccc(C(=O)CCC(=O)Nc2cccc(Cl)c2)cc1	-1.9	3590	-3.9	-3.1	1.7	5.7	10.4
30	CC(CCCC(C)(C)O)NC(=O)c1cc(COc2ccc3ncccc3c2)on1 (stereo not drawn)	-15.1	4269	0.2	7.7	1.8	9.4	9.7
31	CCNC(=O)C(=O)N/N=C/c1cc([N+](=O)[O-])ccc1O	-20.1	2206	/	/	/	/	-9.0
32	C/C(=N\NS(=O)(=O)c1ccc([N+](=O)[O-])cc1)c1ccc2c(c1)OCO2	-19.1	4524	/	/	/	/	2.5
33	N#CC(C#N)=Cc1cn(-c2ncc(C(F)(F)F)cc2Cl)c2ccccc12	-27.8	2786	/	/	-0.1	-0.7	-11.9
34	COc1ccc(NC(=O)c2ccc3nc(C)sc3c2)cc1	-31.4	3294	-4.5	1.0	-2.9	-3.5	-21.1
35	CC1=C(C(=O)Nc2ccccc2C)C(c2ccccc2)NC(=O)N1 (stereo not drawn)	-33.8	6402	-9.1	-4.7	2.8	8.1	4.4
36	Cc1cc(Br)cc(C)c1OCC(=O)NNC(=O)CCC(=O)NCc1ccccc1	-27.6	4404	8.0	2.0	9.4	6.9	/
37	COC(=O)CC(N)c1ccc(OC)c2ccccc12 (stereo not drawn)	-26.2	4873	/	/	2.1	2.1	-4.2
38	CCOc1ccc(C(=O)CCc2nc3ccccc3s2)cc1	-32.1	7863	5.2	1.5	-5.4	39.9	-1.6
39	CCOC(=O)c1cn(Cc2cccc(Cl)c2)c2cc(C)nn2c1=O	-11.2	6252	-3.2	-7.9	2.1	13.1	-3.7
40	CC(=O)Nc1cccc(NC(=O)CSc2ccc(C(F)(F)F)cc2[N+](=O)[O-])c1	-18.0	4049	13.1	3.8	20.6	14.0	1.3
41	Cc1[nH]n2c(=O)c(C#N)c(-c3ccccc3)nc2c1-c1ccccc1	-27.3	4458	0.3	7.6	9.7	-7.1	1.5
42	CC1=CC(=O)C=C/C1=C(/c1ccc(O)cc1C)c1ccccc1S(=O)(=O)O	-11.9	5540	7.6	-0.7	0.0	3.1	/
43	COc1ccccc1CNC(=O)C1CCC(CNS(=O)(=O)c2ccc(NC(C)=O)cc2)CC1 (stereo not drawn)	-9.0	4239	-7.8	3.2	2.0	9.6	8.1
44	CC(NC(=O)CCn1nc(-c2ccc(Cl)cc2)ccc1=O)c1ccccc1 (stereo not drawn)	-0.1	4291	11.9	2.5	5.8	3.4	15.5
45	NS(=O)(=O)c1ccc(CCNC(=O)c2ccc(Cl)c(S(=O)(=O)N3CCCCC3)c2)cc1	-21.6	3397	4.0	6.6	3.1	5.1	/
46	COC(=O)C(/C=N/OCc1ccc([N+](=O)[O-])cc1)NC(=O)c1cccc(Cl)c1 (stereo not drawn)	11.0	2563	/	/	/	/	5.1
47	Cc1cc(=S)cc(C)n1CCCn1ccnc1	-7.0	2759	8.2	4.9	4.8	-1.1	-14.3
48	COc1ccc(S(=O)(=O)NCCC(C)C)cc1OC	-20.5	8933	13.5	8.8	2.7	7.3	0.0
49	O=C(NCc1ccccc1)C1c2ccccc2Oc2ccccc21	-0.9	3464	-1.6	8.5	3.4	8.0	0.5
50	CCOc1ccc(NC(=O)c2cc(=O)[nH]c3ccccc23)cc1	-6.3	3079	6.8	-3.5	2.7	7.5	-3.0

An excerpt from above in order of heavy-atom count, low to high.
No.	Compound	PrP 5UTR inh	Bead autofluor	Mtb hypoxia inh	Mtb hypoxia inh growth	Sa RN4220 lethal	Sa ugtP lethal	BJeLR viability
48	COc1ccc(S(=O)(=O)NCCC(C)C)cc1OC	-20.5	8933	13.5	8.8	2.7	7.3	0.0
50	CCOc1ccc(NC(=O)c2cc(=O)[nH]c3ccccc23)cc1	-6.3	3079	6.8	-3.5	2.7	7.5	-3.0
46	COC(=O)C(/C=N/OCc1ccc([N+](=O)[O-])cc1)NC(=O)c1cccc(Cl)c1 (stereo not drawn)	11.0	2563	/	/	/	/	5.1
43	COc1ccccc1CNC(=O)C1CCC(CNS(=O)(=O)c2ccc(NC(C)=O)cc2)CC1 (stereo not drawn)	-9.0	4239	-7.8	3.2	2.0	9.6	8.1

New compounds follow.
No.	Compound	PrP 5UTR inh	Bead autofluor	Mtb hypoxia inh	Mtb hypoxia inh growth	Sa RN4220 lethal	Sa ugtP lethal	BJeLR viability
51	c1ccc2c(c1)OCCOCCOCCOCCOCCOc1ccccc1OCCOCCOCCO2	-1.8	2470	-0.8	-3.9	3.7	3.1	-13.5
52	Cc1cc(C)c(NC(=O)C[N+](C)(C)CC(O)COc2cccc3ccccc23)c(C)c1 (stereo not drawn)	-27.6	2488	8.4	24.8	12.3	-3.7	2.3
53	CN1C[C@@H]2C[C@@H](c3cccn3-c3nccs3)N3CCC[C@@]23C1=O	-4.4	4063	2.8	-6.8	8.3	2.0	-15.5
54	COC(=O)c1c(NC(=O)COC(=O)CC(NC(C)=O)c2ccccc2)sc(C)c1C (stereo not drawn)	-8.7	6052	-3.9	-2.5	-3.3	0.7	-2.2
55	Cc1ccccc1NC(=O)Cc1nnc(SCC(=O)Nc2ccccc2)n1C	-11.4	4237	6.1	11.7	0.6	-0.3	6.3
56	FC(F)(F)c1cccc(NC(=S)NC(c2ccccc2)c2ccccc2)c1	-6.4	7176	7.2	-2.2	-5.9	-29.6	11.8
57	CCC(CO)(CO)N(CC(=O)Nc1ccc(OC)cc1)CC(=O)Nc1ccc(OC)cc1	-22.4	3270	-9.2	2.7	4.4	11.9	6.2
58	O=c1c2c3c(sc2nc(NCCO)n1-c1ccccc1)CCCC3	-23.1	3822	9.3	1.3	5.3	5.5	-1.3
59	CCC1(c2ccc(F)cc2)NC(=O)N(CC(=O)NC2CCCCCC2)C1=O (stereo not drawn)	-15.6	5884	6.5	8.6	5.4	1.8	/
60	COc1ccccc1C(=O)NC(=O)CSc1cccc[n+]1[O-]	-15.6	4329	11.3	3.9	0.3	0.8	3.9
61	O=C(CSC1=NCCN1)NC1CCCCCC1	-22.9	2897	/	/	-3.0	2.6	3.0
62	C/C(=N\NC(=O)c1ccccc1)c1c(O)n(Cc2ccccc2)c(=O)[nH]c1=O	/	6207	12.4	6.5	4.8	8.4	2.4
63	CC1CCCN(CCCOc2ccccc2-c2ccccc2)C1 (stereo not drawn)	-3.8	4374	17.5	22.5	1.3	4.9	8.5
64	CCOc1ccc(C=NNC(=O)c2nnn(-c3nonc3N)c2COc2ccc(F)cc2)cc1	/	/	-8.1	0.7	4.5	2.8	/
